Screening data (PubChem BioAssay)
RN4220 kill: S. aureus RN4220 growth inhibition. inhibition, % (concentration not given with the values). AID 1259311. 330,000 tested, 0.33% active. OD600, 16 h;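 active means z-score of -3 or lower and OD600 up to 0.18 on both plates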;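 further: plate controls were untreated cells for no effect and reference antibiotic for full effect; stock transfer was 100 nL into about 80 µL; one replicate is shown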
ugtP null kill: growth inhibition of S. aureus ugtP deletion strain; growth inhibition, % (no concentration beside the values); 330,000 tested, 0.54% active; AID 1259309; S. aureus RN4220 ugtP deletion, OD600 growth, 16 h; some inactives read as strong as hits;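 active means z-score under -3 and OD600 up to 0.15 on both plates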;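 further: plate controls were untreated wells for no effect and antibiotic for full effect; wells of about 80 µL received 100 nL stock; the first replicate is given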
BJeLR lethal: kills HRASV12-expressing BJeLR cells; inhibition, % (no concentration beside the values); 300,000 tested, 0.17% active; BJeLR (HRASV12) viability, CellTiter-Glo ATP luminescence, 48 h; reference of the scale not given here;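 active means replicate mean above 50%; inconclusive means above 50% but judged a plate artefact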;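 further: 50 nL library stock added to about 25 µL; numbers are from one replicate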
PrP UTR inh: suppresses PrP 5' UTR mRNA reporter expression. cell-based PrP 5' UTR mRNA reporter, plate reader. inhibition, % (no concentration beside the values). 340,000 tested, 0.35% active;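 active means every replicate at 50% or more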;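 further: 0 = median of the neutral control wells; tested in H4 reporter cells; numbers are from one replicate; inactives centre near -14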
Autofluor counter: compound fluorescence in toxin protease inhibitor counterscreen. 360,000 tested, 3.1% active. compound autofluorescence counterscreen, microsphere flow cytometry; stronger effect = higher value. fluorescence intensity (no concentration beside the values). AID 624483;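 active means at least 3 SD above the mean of all compounds, about 16000 in these data; inconclusive means too few beads counted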;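 further: 100 nL of 1 mM stock went into each well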
Mtb hypoxia inh: inhibitors of hypoxia-regulated fluorescent reporter in Mycobacterium tuberculosis; M. tuberculosis hypoxia-regulated fluorescent reporter, fluorescence; fluorescence inhibition, % (no concentration beside the values); 300,000 tested, 0.1% active;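 active means 35 to 45% if threefold the growth effect, above 45% if 1.5-fold the growth effect; inactive means the rest, general growth blockers included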;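 further: wells of about 50 µL received 100 nL stock; 0% = vehicle wells and 100% = reference inhibitor wells; whole bacteria with a GFP reporter of the hypoxia response; strong numbers were not always called active; many hits fall short of the cut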
Mtb hypoxia inh growth: recorded beside Mtb hypoxia inh, whose call it bears; growth inhibition, %; measured here: M. tuberculosis growth (absorbance);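 0% = vehicle and 100% = reference antibiotic; read after six days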
* = called active by the depositor; ? = inconclusive; · = no result given.

SMILES	RN4220 kill	ugtP null kill	BJeLR lethal	PrP UTR inh	Autofluor counter	Mtb hypoxia inh	Mtb hypoxia inh growth
O=S(=O)(NCCc1c[nH]c2ccccc12)c1ccccc1	7.1	5	8	-18	3763	8	3
COC(=O)c1ccc(C(=O)NC2CCCc3c2cnn3-c2ccc(C)c(C)c2)cc1 (stereo not given)	3.5	3	-7	-9	5804	3	4
CS(=O)(=O)N(CC(=O)Nc1ccccc1C(=O)NCc1ccco1)c1ccccc1F	-2.1	5	-6	-8	4227	7	14
COc1ccc(NC2CCCN(Cc3cccc4cnccc34)C2)cc1OC (stereo not given)	2.3	1	-5	-22	·	1	-4
O=C1NC(=NCc2ccccc2)NC1(c1ccccc1)c1ccccc1	2.7	2	·	-29	4187	1	2
Nc1nc(SCC(=O)c2cccc([N+](=O)[O-])c2)n[nH]1	3.7	11	-5	-10	1955	-3	4
COC(=O)c1nc(C(=O)OC)c(C(=O)OC)nc1C(=O)OC	-2.9	-2	1	-3	6147	·	·
Cc1ccc([N+](=O)[O-])cc1NC(=O)CCc1ccccc1	6.3	6	-8	-34	5382	1	6
Cn1c(=O)c2c(nc(CN3CCN(c4ccc(F)cc4)CC3)n2CCN2CCOCC2)n(C)c1=O	4.8	-7	-3	-12	4953	5	-6
COCC(=O)N1CCC(n2nccc2NC(=O)c2ccccc2OC)CC1	-0.7	-3	0	-1	5606	-2	10
COc1ccc(-n2c(SCC(N)=O)nc3sc4c(c3c2=O)CCC4)cc1	4.9	6	9	-4	4034	1	-1
Cc1cc(=O)oc2c(C)c(OC(C)C(=O)NCCN3CCOCC3)ccc12 (stereo not given)	2.6	0	-8	-6	5115	4	-2
Cc1cnc(C(=O)NCCc2ccc(C(F)(F)F)cc2)cn1	-2.8	6	-4	-12	3522	26	36
Nc1nc(-c2ccccn2)nc(N)c1Cc1ccccc1F	8.1	8	-1	-55	4620	11	1
NS(=O)(=O)c1cccc(NC(=O)COC(=O)CN2C(=O)C3CC=CCC3C2=O)c1 (stereo not given)	4.8	-2	4	0	3169	2	10
CSCCC(NC(=O)c1ccccc1Cl)C(=O)NCc1ccncc1 (stereo not given)	4.1	2	·	-14	3747	8	3
Nc1c(C(=O)NCCN2CCOCC2)c2nc3ccccc3nc2n1Cc1ccccc1	-2.8	-12	-9	-31	3876	-12	21
CCCCN(C(=O)COc1ccc(C)cc1OC)c1c(N)n(CCC)c(=O)[nH]c1=O	4.4	6	-4	-10	4352	-3	-3
COc1cc(CNc2nnnn2C)cc(OC)c1OC	2.8	8	2	-16	3263	11	2
CCC(=O)NC(c1ccc(C)cc1)c1ccc2cccnc2c1O (stereo not given)	·	·	15	16	3461	·	·

Some of the entries above in another layout:
SMILES | RN4220 kill | ugtP null kill | BJeLR lethal | PrP UTR inh | Autofluor counter | Mtb hypoxia inh | Mtb hypoxia inh growth
O=S(=O)(NCCc1c[nH]c2ccccc12)c1ccccc1 | 7.1 | 5 | 8 | -18 | 3763 | 8 | 3
COC(=O)c1ccc(C(=O)NC2CCCc3c2cnn3-c2ccc(C)c(C)c2)cc1 (stereo not given) | 3.5 | 3 | -7 | -9 | 5804 | 3 | 4

Remaining list, next part
SMILES	RN4220 kill	ugtP null kill	BJeLR lethal	PrP UTR inh	Autofluor counter	Mtb hypoxia inh	Mtb hypoxia inh growth
CCOC(=O)C1(CC2CCCCO2)CCN(S(=O)(=O)c2cccc(F)c2)CC1 (stereo not given)	3.0	-1	-7	-12	4554	-10	-1
COCCn1cc(C(=O)c2cc(Br)ccc2O)cc(C#N)c1=O	6.1	-5	1	-1	2363	13	11
COc1ccc(CC(=O)NNC(=O)CSc2nc(C)c(C)c(=O)[nH]2)cc1	-2.5	-4	4	-16	2777	-6	10
COc1ccc(-n2c(O)cnc2Nc2nc(C)cc(C)n2)cc1OC	1.5	4	-1	-18	4263	4	10
Cc1cc(C(F)(F)Cl)n2ncc(-c3ccccn3)c2n1	4.7	6	-10	-31	3578	16	4
CC1CCCCC1NC(=O)CN(C)S(=O)(=O)c1ccc2c(c1)c(=O)n(C)c(=O)n2C (stereo not given)	5.2	7	8	-29	4051	7	1
c1coc(CNc2c3c(nc4ncnn24)CCC3)c1	-2.4	-10	1	-1	20732*	-5	15
CCOC(=O)/C(C#N)=C(\N)C(C)C(=O)Nc1ccccn1 (stereo not given)	1.3	7	10	-11	4994	·	·
Cc1ccc2nc(-c3ccccc3O)c(Nc3ccc4c(c3)OCCO4)n2c1	36	8	-2	-26	2166	4	0
O=S(=O)(NCC1CCCO1)c1ccc(NS(=O)(=O)c2ccc(F)cc2)cc1 (stereo not given)	4.7	13	-4	-7	3921	-11	-7
CCOc1ccc(-n2c(=O)cc(N3CCN(c4ccc(F)cc4)CC3)[nH]c2=O)cc1	-0.3	-4	-6	·	10297	-10	2
O=C(Nc1nc(-c2ccc(F)cc2)cs1)c1cnccn1	2.6	-10	-7	-17	2022	13	0
CC1CN(C(=O)c2ccc(COc3ccc4ccccc4c3)o2)CC(C)O1 (stereo not given)	-1.8	7	·	-56	4408	6	12
O=C(NC(NC1CCS(=O)(=O)C1)C(=O)c1cccs1)c1ccccc1 (stereo not given)	2.2	-1	-11	·	·	5	6
O=C(c1ccc(S(=O)(=O)Cc2cc(F)ccc2F)c([N+](=O)[O-])c1)N1CCCC1	2.7	-2	4	-12	3838	0	5
Cc1ccc(O)c(C(=O)c2cnc3onc(-c4ccc(F)cc4)c3c2)c1	-2.3	2	0	-12	2028	-4	-3
O=C(CCN1CCC(c2cccs2)=N1)c1cccs1	1.5	10	-4	·	4058	11	13
COc1ccc(NS(=O)(=O)c2cc(NC(=O)c3cnccn3)ccc2OC)cc1Br	3.9	3	-1	-30	3874	-4	6
CCCNC(=O)c1cc(-c2ccc(OC)cc2)n(CCCOC)c1C	2.8	1	3	-8	1897	1	1
Cc1cccc(NC(=S)NCCc2ccc(Cl)cc2)c1C	3.5	-6	-4	-23	2911	4	-3
COc1cc2c(cc1OC)-c1nnc(-c3ccco3)n1C1(CCCC1)C2	-13	-4	13	-19	2975	8	4
O=C(COC(=O)Cc1ccccc1)NCc1ccc2c(c1)OCO2	2.5	7	·	-2	2849	9	6
Cc1ccccc1Cn1c(=O)n(CC2CCC(C(=O)NCCc3ccccc3)CC2)c(=O)c2ccccc21 (stereo not given)	2.1	-3	3	-20	2083	-2	1
CC(c1ccc2c(c1)OCO2)n1c(=S)[nH]c2ccccc2c1=O (stereo not given)	-15	-44	·	-19	3825	6	8
Cc1ccc(/C=C2/Sc3ccc(C(=O)N4CCN(C)CC4)cc3NC2=O)cc1	-2.1	-2	1	5	6683	6	12
CC(=O)c1cccc(NC(=O)c2cc(-c3ccc(C)cc3)on2)c1	6.8	15	4	-82	5675	9	4
CC(=NOC(=O)c1c(-c2c(F)cccc2Cl)noc1C)c1nccs1	2.5	3	·	·	·	9	6
Cc1ccc(S(=O)(=O)N2CC3CCC2C3)cc1 (stereo not given)	-8.1	-4	1	-6	3251	26	-22
Nc1nnc(SCC(=O)Nc2sc3c(c2C(=O)c2ccccc2)CCCC3)s1	0.6	18	-6	-15	2722	7	12
COc1cccc(C(=O)NCCCN2CCN(CCCNC(=O)c3cccc(OC)c3)CC2)c1	0.1	1	4	-17	3373	16	4
CCOP(=O)(OCC)C(=NOC(=O)c1cccc([N+](=O)[O-])c1)C(N)=O	0.8	0	·	·	·	2	5
Cc1ccc(-n2nc3c(=O)n(CCCC(=O)NCc4ccco4)nc(C)c3c2C)cc1	·	·	-8	-14	5206	·	·
Cc1cc(C(=O)COC(=O)CCC(=O)c2ccc3c(c2)OCCO3)c(C)n1Cc1ccco1	-1.0	2	9	-9	3731	·	·
CCOC(=O)c1cnc(-n2nc(C)cc2C)nc1Oc1ccccc1F	7.6	0	-4	·	5960	5	12
CCCOc1ccc(C(=O)NCCC(=O)NCCCC(=O)OCC)cc1	5.4	8	-3	-10	10821	0	0
CNC(=O)/C(C#N)=C/c1c(N2CCN(c3ccc(OC)cc3)CC2)nc2c(C)cccn2c1=O	-1.2	-5	2	-8	3078	16	8
O=[N+]([O-])c1ccc2c(c1)nc(CO)n2Cc1ccccc1	1.0	6	1	-17	3758	19	9
COc1cccc(SCc2noc(C(=O)NCCC(C)C)c2C(=O)NCCC(C)C)c1	-12	-18	6	-12	3353	6	8
CCCNc1c(NS(=O)(=O)c2ccc3c(c2)CCCC3)c(=O)oc2ccccc12	1.2	1	-1	-10	5254	3	1
COc1ccc(CN2CCC(N3CCC(C(=O)N4CCOCC4)CC3)CC2)c(F)c1	3.4	7	0	-15	5599	7	9
Nc1cc(Cl)cc2c1-c1ccc(Cl)cc1C2O (stereo not given)	6.9	12	·	-26	3388	2	1
O=C(Nc1ccc(F)cc1F)c1ccc2nc(N3CCOCC3)sc2c1	5.1	12	3	-27	5851	10	11
Cc1cc(C)nc(SCC(=O)N2CCc3ccccc32)n1	-1.6	-5	1	-70	5838	-7	2
Cc1ncoc1C(=O)N1CCCC(CCC(=O)NCc2ccc(F)c(F)c2)C1 (stereo not given)	0.6	3	-1	-25	2632	-8	3
Fc1ccc(N2CCN(Cc3cc4c(cc3Br)OCO4)CC2)cc1	-1.1	18	-8	-18	3680	11	-3
CCC(C)[C@H](N)c1nnc(SCC(=O)Nc2ccc(C)cc2C)o1 (stereo not given in full)	5.5	1	6	-15	5640	15	3
Cc1ccc(CSc2nnc(-c3ccncc3)n2CC2CCCO2)cc1 (stereo not given)	3.5	4	3	-28	3748	-10	-7
CN1CCN(C(=O)/C(=C/c2ccccc2)c2ccccc2)CC1	-1.0	6	2	-52	10487	-5	-8
c1csc(-c2noc(COc3ccc4c(c3)CCCC4)n2)c1	6.0	66	-5	-109	9220	3	15
COc1ccc(NC(=O)CSc2ncnc3[nH]ncc23)cc1	2.7	-3	-7	-9	6544	9	20
S=C(N/N=C/c1ccc(Br)cc1)N1CCCCC1	·	·	-2	-75	3899	·	·
Cc1ccc2oc(=O)c3cnn(CC(=O)NC4CCCCC4C)c3c2c1 (stereo not given)	1.2	0	-1	-8	4491	0	4
O=C(O)C1=CC(c2ccccc2)CC(OCc2ccc(CO)cc2)O1 (stereo not given)	7.4	6	·	·	·	19	7
CCOC(=O)N1CCN(C(=O)/C=C/c2ccc3c(c2)OCO3)CC1	3.3	-1	3	-7	2243	10	4
CC(=O)Nc1ccc(C(=O)OCCCOC(=O)c2ccc(NC(C)=O)cc2)cc1	3.4	6	3	-2	4067	5	3
CC(C)(C)OC(=O)N/N=C/c1cn(-c2ccccc2)nc1-c1cccnc1	·	·	-12	-28	4392	·	·
COc1ccc(S(=O)(=O)NCC(c2ccc3c(c2)OCO3)N2CCN(C)CC2)cc1OC (stereo not given)	1.4	3	-9	-12	?	2	2
O=C(Nc1ccc(N2CCN(C(=O)c3ccccc3)CC2)cc1)c1cc([N+](=O)[O-])ccc1N1CCOCC1	-1.7	4	11	-17	4982	-3	5
CN(c1ccc(Cl)cc1)c1cc(=O)n(C)c2ccccc12	-0.9	7	6	1	4663	21	14
CCCCn1c(=O)c(C(=O)Nc2ccccc2Cl)c(O)c2ccccc21	15	66	9	-12	3129	7	0
CCCCNC(=O)c1ccccc1NC(=O)c1ccc2c(c1)OCO2	3.1	-5	-2	-18	2147	9	4
c1ccc(Cn2nnc(CNc3ccccc3)c2-c2c(CNc3ccccc3)nnn2Cc2ccccc2)cc1	·	·	-2	-15	5527	·	·
O=C(CSc1nc(O)cc(=O)[nH]1)C1CC1	4.8	-4	-5	7	2462	1	0

Molecules from the list above that contain a cyano group:
SMILES	RN4220 kill	ugtP null kill	BJeLR lethal	PrP UTR inh	Autofluor counter	Mtb hypoxia inh	Mtb hypoxia inh growth
COCCn1cc(C(=O)c2cc(Br)ccc2O)cc(C#N)c1=O	6.1	-5	1	-1	2363	13	11
CCOC(=O)/C(C#N)=C(\N)C(C)C(=O)Nc1ccccn1 (stereo not given)	1.3	7	10	-11	4994	·	·
CNC(=O)/C(C#N)=C/c1c(N2CCN(c3ccc(OC)cc3)CC2)nc2c(C)cccn2c1=O	-1.2	-5	2	-8	3078	16	8

The order is random; about 4% have a hit in one of these screens.
